NPYLR7 ag: agonists of mosquito NPYLR7 receptor, primary screen, cell-based, Aedes aegypti, calcium fluorescence, mosquito biting behavior | Aedes aegypti neuropeptide Y-like receptor 7 (NPYLR7) | HEK293T NPYLR7/Galpha15, GCaMP6s calcium fluorescence | activation, % at 10 µM | 0.15% of 270,000 active | AID 1259423, 2018; in the data active = activation above about 40%;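 also: 0% = vehicle and 100% = reference agonist at the receptor; some compounds past the cut are filed as inactive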
NPYLR7 ag max-min: further read-out of NPYLR7 ag, marked with its call; activation, %; measured here: Max-Min RFU normalised activation; some inactives read as strong as hits;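 span of the calcium signal over five minutes; 0% = vehicle and 100% = native peptide agonist; compound fluorescence can raise it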
An asterisk follows results filed as active.

SMILES | NPYLR7 ag | NPYLR7 ag max-min
Cc1cc(NC(=O)C(=O)N2CCc3[nH]c4ccc(F)cc4c3C2)no1 | 6 | 3
CCc1nc2ccc(C(=O)N(C)C(C)C)cn2c1N(C)Cc1cc2ccccc2s1 | 11 | 22
CC(C)(C)NC(=O)NC(=O)COC(=O)c1ccc([N+](=O)[O-])o1 | -9 | -13
COC1=CC(=O)O/C1=C(/OC)[C@@H]1O[C@H]1c1ccccc1 | -4 | -11
COc1ccccc1CNS(=O)(=O)c1ccc(Br)s1 | 4 | 6
O=C(CSc1nnc(-c2ccco2)o1)NC(=O)NC1CCCCC1 | 9 | 10
O=C(CCc1ccccc1)N(Cc1cccnc1)c1nc2c(F)cccc2s1 | -5 | -5
CN1CCN(c2ncccc2CNC(=O)CCc2nc(Cl)n[nH]2)CC1 | 0 | -1
CCCN(C)c1cc(C(C)C)nc(SCc2ccc(C(=O)NCc3ccco3)o2)n1 | 6 | -4
CCO[C@H]1COC[C@@H]1NC(=O)c1cc(C)c(CC)n(C)c1=O | 3 | 3
CCNC(=O)NCC1CCN(Cc2cccc3ccccc23)C1 (stereo not drawn) | -1 | -1
CC(=O)Nc1sc(CC#N)nc1-c1ccc(C)cc1 | -14 | -14
CCOC(=O)c1ccccc1Sc1ccccc1OC | 3 | 1
Cc1cc(C)n(-c2cc(-c3ccccc3)nc3c(-c4ccccc4)cnn23)n1 | 2 | 2
Cc1ccc(Nc2nc(NCCOCCO)nc(N)c2[N+](=O)[O-])cc1C | 0 | -1
Cc1c(O)cccc1C(=O)N[C@@H](CSc1ccccc1)[C@H](O)CN1C[C@H]2CCCC[C@H]2C[C@H]1C(=O)NC(C)(C)C | -8 | -17
Cc1nn(-c2ccccc2)c2sc(C(=O)N3CCOC(C)C3)cc12 (stereo not drawn) | 5 | 3
Cc1cccc(C(C(=O)N(Cc2cncs2)C2CC2)N(C)C)c1 (stereo not drawn) | 21 | 8
CC12CC(NC(=O)N1c1ccc(F)cc1F)c1cc(Br)ccc1O2 (stereo not drawn) | 0 | 9
O=C(Nc1nnc(SCc2ccccc2C(F)(F)F)s1)c1ccco1 | -3 | -1
O=C(Nc1ccc(-c2cscn2)cc1)C1CCCN(C(=O)CCN2CCCCO2)C1 (stereo not drawn) | 7 | 3
Cc1ccc(-c2cnnc(N3CCCCC3CCc3ccc(O)cc3)n2)o1 (stereo not drawn) | 4 | 3
O=C1C2C3C=CC(C3)C2C(=O)N1c1c(F)cccc1F (stereo not drawn) | -12 | -17
O=c1ccc(-c2ccncc2)nn1CCCNS(=O)(=O)c1ccc2c(c1)CCCC2 | 20 | 15
Cc1ccccc1C(=O)N1CCN(C(C(=O)NCCc2ccccc2)C2CCCC2)CC1 (stereo not drawn) | -1 | 0

Part of the list above in order of length of the SMILES, ascending:
SMILES | NPYLR7 ag | NPYLR7 ag max-min
CCOC(=O)c1ccccc1Sc1ccccc1OC | 3 | 1
COc1ccccc1CNS(=O)(=O)c1ccc(Br)s1 | 4 | 6
O=C(Nc1nnc(SCc2ccccc2C(F)(F)F)s1)c1ccco1 | -3 | -1
Cc1cc(C)n(-c2cc(-c3ccccc3)nc3c(-c4ccccc4)cnn23)n1 | 2 | 2
Cc1ccccc1C(=O)N1CCN(C(C(=O)NCCc2ccccc2)C2CCCC2)CC1 (stereo not drawn) | -1 | 0

Exported with each value named: part of the list above
Cc1c(O)cccc1C(=O)N[C@@H](CSc1ccccc1)[C@H](O)CN1C[C@H]2CCCC[C@H]2C[C@H]1C(=O)NC(C)(C)C
  NPYLR7 ag: -8
  NPYLR7 ag max-min: -17
Cc1nn(-c2ccccc2)c2sc(C(=O)N3CCOC(C)C3)cc12 (stereo not drawn)
  NPYLR7 ag: 5
  NPYLR7 ag max-min: 3
Cc1cccc(C(C(=O)N(Cc2cncs2)C2CC2)N(C)C)c1 (stereo not drawn)
  NPYLR7 ag: 21
  NPYLR7 ag max-min: 8
CC12CC(NC(=O)N1c1ccc(F)cc1F)c1cc(Br)ccc1O2 (stereo not drawn)
  NPYLR7 ag: 0
  NPYLR7 ag max-min: 9

The list goes on:
SMILES | NPYLR7 ag | NPYLR7 ag max-min
COc1ccc(OC)c(NS(=O)(=O)c2ccc3[nH]c(=O)[nH]c3c2)c1 | 3 | 2
Cc1nc2scc(-c3ccco3)c2c(=O)n1N=CN(C)C | 2 | 4
COc1cccc(C2CCCCN2Cc2nc(CCc3ccccc3)no2)c1 (stereo not drawn) | 5 | 0
Cc1nc(Cl)sc1S(=O)(=O)Nc1ccc(C(=O)NC(C)(C)C)cc1 | -5 | -5
CC1=C(C(=O)OCC2CCCO2)C(c2ccccc2F)NC(=O)N1 (stereo not drawn) | 0 | 3
N#CC1(P(=O)(c2ccccc2)c2ccccc2)CCCC1 | 8 | 6
CCOC(=O)C(=CNc1nnc(C)s1)C(=O)OCC | 1 | 0
COc1ccc(C(=O)N2CCN(C(c3ccc(Cl)cc3)c3ccc(Cl)cc3)CC2)cc1F | 6 | 2
CC1c2cccn2CCN1C(=O)Cc1nc(-c2cccnc2)n[nH]1 (stereo not drawn) | -2 | -2
Cc1cccc(-c2[nH]ncc2C(=O)N2CCC3(CC2)C(=O)NCCN3C)c1 | 12 | 6
Cc1cccc(CC(=O)N2CCN=C2SCc2ccc([N+](=O)[O-])cc2)c1 | -1 | -5
CC(=O)c1cccc(NC(=O)c2nc3nc(C)cc(C(F)F)n3n2)c1 | 3 | -6
Cc1ccc2scc(N3CCC(C(N)=O)CC3)c(=O)c2c1 | 1 | -2
CCn1c(C(=O)N2CCN(CCS(C)=O)CC2)cc2ccccc21 (stereo not drawn) | 1 | 0
c1ccc(OCc2noc(CN3CCCC(c4ccccc4)CC3)n2)cc1 (stereo not drawn) | 6 | 6
COC(=O)C1Cc2ccccc2CN1C(=O)CN(C)CC(=O)Nc1ccc(C)cc1 (stereo not drawn) | 4 | 11
Oc1c(Br)cc(C=NNc2ncc(F)c(N3CCOCC3)n2)cc1Br | 5 | 2
CCN1CCN(c2oc(-c3ccc(COc4ccc(C)cc4)o3)nc2C#N)CC1 | 0 | 16
CC(C)c1cc(CN2CCc3ccc(NC(=O)C4CCCO4)cc3C2)[nH]n1 (stereo not drawn) | 2 | 3
CC1CCC(NS(=O)(=O)c2ccc(Cl)s2)CC1 (stereo not drawn) | 2 | 12
COC(=O)[C@@H]1C[C@H](NC(=O)c2cc(-c3ccccc3)nn2C)CN1C | 1 | 3
COC(=O)c1ccc2c(c1)CC(CNC(=O)c1cc(F)cc(C(F)(F)F)c1)O2 (stereo not drawn) | 21 | 29
O=C(CSc1nc(=O)n(CCCN2CCOCC2)c2c1CCC2)Nc1ccccc1Cl | 0 | -2
OCC(O)Cn1c2ccccc2c2ccccc21 (stereo not drawn) | 0 | -1
CC(=O)c1cccc(N2C(=O)C3C4C=CC(C)(O4)C3C2=O)c1 (stereo not drawn) | 10 | 9
SMILES | NPYLR7 ag | NPYLR7 ag max-min
Cc1cc(O)ccc1NC(=O)c1cc(Br)ccc1Br | -15 | -14
CC(=O)Nc1ccc(-c2nc3ccccc3o2)cc1C | 8 | 22
COc1ccc(S(=O)(=O)Nc2ccc(Br)cc2)cc1N(C)S(C)(=O)=O | -5 | -3
CC(C)(CNC(=O)Nc1nccs1)N1CCc2ccccc2C1 | -1 | -2
CCc1nc(C)c(C(=O)N(Cc2ccccn2)CC2CCCO2)o1 (stereo not drawn) | 0 | -1
Cc1cccc(COCC2CN(C(=O)COc3ccccc3C)CCO2)c1 (stereo not drawn) | 16 | 22
CC(=O)N(CN1C(=O)c2ccc(Br)cc2C1=O)c1ccccc1 | 4 | 4
COCC1(C(=O)NC(C)Cc2ncccc2C)CCC1 (stereo not drawn) | 5 | 5
COCOc1ccc(-c2cc(-c3cccc(OC(F)(F)F)c3)cnc2N)cc1 | -4 | -9
O=C(O)Cn1ccc2c(nnc3c(-c4ccccc4)cnn32)c1=O | 8 | 6
CCOc1ccccc1N1CCN(C(=O)c2cc(-c3ccccc3F)nc3cc(-c4ccccc4)nn23)CC1 | 12 | 11
CCc1ccc2occ(CC(=O)N3CCCC(N4CCCC4=O)C3)c2c1 (stereo not drawn) | -2 | -3
COCCNC(=O)c1ccc(CSc2nnc(Cc3ccccc3)n2Cc2ccccc2)cc1 | 5 | 11
CN(C)CCN(C)C(=O)CC(=O)NC12CC3CC(CC(C3)C1)C2 | -1 | -6
O=C(NN1C(=O)/C(=C/c2cccc(Br)c2)SC1=S)c1ccncc1 | 3 | -1
COc1cccc(S(=O)(=O)N2[C@H]3CCNC[C@@H]2CC3)c1 | 2 | 2
CN1C(=O)NC(c2ccc(C(C)(C)C)cc2)C2=C1CN(CC(=O)NCc1cccnc1)C2=O (stereo not drawn) | -1 | 5
CC(C)C[C@@H](N)C(=O)NCc1noc(-c2c(F)cccc2F)n1 | 23 | 15
COc1ccc(CN2CCCn3cccc3C2c2cccc([N+](=O)[O-])c2)cc1O (stereo not drawn) | 10 | 12
CC(C)CCn1c(=O)n(CCN2C[C@H]3CC[C@H]2C3)c2cc(C(=O)O)cnc21 | 29 | 17
COc1cc(OC)nc(C(NC(=O)C2CCN(CCc3c[nH]c4ccccc34)CC2)c2ccc(F)cc2)n1 (stereo not drawn) | -5 | 0
COc1ccc(CNC(=O)Nc2ncc([N+](=O)[O-])s2)cc1 | -8 | -9
CC(=O)Oc1c(-c2ccc(NC(=O)C(C)C)cc2)c(-c2ccc3c(c2)OCO3)nn1-c1ccc(C)cc1 | 5 | 8
COc1cccc2cc(C(=O)NCc3ccccc3)c(=N)oc12 | -6 | -12
C=Cc1cccc(-c2nccn2CCCO)c1 | 4 | 1
SMILES | NPYLR7 ag | NPYLR7 ag max-min
O=C(c1cc2ncccn2n1)N1CC[C@@H](c2ccc3ccccc3c2)[C@H](O)C1 | -4 | -6
CCCC1C=CCN1C(=O)c1cc(COc2ccc(C(C)=O)cc2)on1 (stereo not drawn) | -2 | -4
CCOC(=O)N1CCN(C(=O)c2csc(CSc3nnc(-c4ccccc4Cl)n3-c3ccccc3OC)n2)CC1 | 10 | 5
COCCNC(=O)C1(c2ccnc(Nc3cccc(OC)c3)c2)CC1 | 4 | 5
Brc1ccccc1-c1nnc(CSc2nnnn2C2CC2)o1 | 4 | 6
Cc1ccc(C)c(NC(=O)Cn2c(-c3nnc(C)o3)cc3ccccc32)c1 | 4 | -2
COc1cc2c(cc1OC)C(c1cccc(C(F)(F)F)c1)N(C(=O)C(c1ccccc1)c1ccccc1)CC2 (stereo not drawn) | 25 | 18
CCc1nnc(NC(=O)CN2CCN(c3ccccc3F)CC2)s1 | 17 | 8
COc1cccc(-c2cc(C(=O)N3CCc4ccccc4C3)n(-c3cc(C)ccc3C)n2)c1 | -2 | 5
COc1cccc(CN(Cc2cccn2Cc2ccccc2)C2CCCCC2)c1 | 5 | 15
O=C(Nc1cccnc1)C1CCCN(c2ncccc2C(F)(F)F)C1 (stereo not drawn) | 11 | 3
CC1CCc2noc(NC(=O)c3cc(=O)c4ccccc4o3)c2C1 (stereo not drawn) | -11 | -12
CC1CN(c2cc(Oc3cccc(Cl)c3)ncn2)CCN1C(=O)C1CC1 (stereo not drawn) | 10 | 9
C=c1ccccc1=C1N=C(c2ccc(Cl)cc2)NO1 | -3 | -7
COc1ccccc1NC(=O)Cn1nc(C(C)C)c2cnn(C(C)(C)C)c2c1=O | 3 | 0
CC(C)=CCN1CCN(Cc2coc3ccc(C)cc3c2=O)CC1CCO (stereo not drawn) | 7 | 0
CCCN(CCOC)[C@H]1[C@H](O)C[C@@H]2CC(C)(C)OC[C@]21O | 7 | 12
COC(=O)CC(NC(=O)c1ccc(N(C)C)cc1)c1ccc(F)cc1 (stereo not drawn) | 13 | 11
O=C(CSc1nc2ccccc2c(=O)n1CCCO)Nc1ccc(Cl)cn1 | 11 | 6
Cc1ccc(N2C(=O)C(c3c(C)[nH]n(-c4ccccc4)c3=O)=C(N(C)Cc3ccccc3)C2=O)cc1 | 5 | 8
CC(Cc1ccc2c(c1)OCO2)CN1CCn2c(nnc2C(=O)NCC2CC2)C1 (stereo not drawn) | 13 | 5
CC(CCc1ccccc1)NC(=O)CN(Cc1ccccc1)c1nc(Cc2ccc(Cl)cc2)ns1 (stereo not drawn) | -8 | 0
Cc1oc2c(c(C)cc3o/c(=N\O)c(C)c(C)c32)c1C | -12 | -18
COc1ccc(C(=O)NC(=S)NC(C)Cc2cccs2)cc1 (stereo not drawn) | 0 | -5
Cc1nn(C)c(C)c1S(=O)(=O)Nc1ccc(C#N)cc1 | 3 | 5
SMILES | NPYLR7 ag | NPYLR7 ag max-min
COc1ccc(/C=C2\N=C(c3cccc(F)c3)OC2=O)cc1OC | 33 | 30
O=C(C1CCCCC1)N(CCn1cccn1)c1nc2ccccc2s1 | 9 | 6
Cc1ccc(N=Cc2ccc(N(C)C)cc2)c(C)c1 | -2 | -4
CN(Cc1ccc2c(c1)CCO2)Cc1cc(-c2cccnc2)no1 | -5 | -6
O=C(Nc1ccccc1)c1cc(S(=O)(=O)N(CCO)CCO)ccc1Br | -7 | -8
Cn1cc(CC(=O)NC2CCCN(c3ccc(C(F)(F)F)cn3)C2)c2ccccc21 (stereo not drawn) | -10 | -13
Cc1ccccc1C(CC(=O)N1CCC(N2CCOCC2)CC1)c1ccccc1 (stereo not drawn) | 7 | 2
CCCCNC(=O)c1sccc1N(C)S(=O)(=O)c1ccc(C)c(Cl)c1 | 3 | 1
Cc1cnc2c(C(=O)NCc3ccc4c(c3)n(C)c(=O)n4C)cnn2c1 | 5 | 3

The list is partial; count on the stated rates, not on these rows.
